Screens: PubChem BioAssay, ICCB-Longwood Screening Facility, Harvard Medical School
HCMV UL50-53 inh: cytomegalovirus nuclear egress complex inhibition | HTRF UL50-UL53 interaction, normalized percent inhibition | 190,000 compounds, 0.15% hits | AID 1918969 | inhibition, % (concentration not given with the values);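 active = both replicates at 50% or more, plus weaker picks with an unusually low signal ratio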;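 note: stock transfer was 100 nL into about 20 µL; 0% = negative control wells and 100% = wells with untagged competitor protein; inactives centre near -12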
Sa growth 42C: blocks Staphylococcus aureus growth. S. aureus RN4220 growth, OD600, 20 h, 42 °C; hits give low values. relative growth, % (no concentration beside the values). 170,000 compounds, 0.53% hits. AID 720641;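 active = growth at 42 °C up to 50% and 20 or more points under that at 30 °C, or under 10% at both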;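 note: 300 nL library stock went into each well; scaled to the means of positive and negative controls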
GIV Gai3 FP: inhibitors of GIV GBA-motif binding to rat Galpha-i3. P08753. Galpha-i3/FITC-GIV peptide fluorescence polarization, 90 min; hits give low values; scaled: aluminum fluoride 0%, vehicle 100%. 210,000 compounds, 0.42% hits. percent of control (FP), % (concentration not given with the values);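 active = replicate mean at 85% of control or lower, very high polarization wells dropped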;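 note: wells of about 15 µL received 100 nL stock; the first replicate is given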
Target sequence (P08753 whole entry, looked up): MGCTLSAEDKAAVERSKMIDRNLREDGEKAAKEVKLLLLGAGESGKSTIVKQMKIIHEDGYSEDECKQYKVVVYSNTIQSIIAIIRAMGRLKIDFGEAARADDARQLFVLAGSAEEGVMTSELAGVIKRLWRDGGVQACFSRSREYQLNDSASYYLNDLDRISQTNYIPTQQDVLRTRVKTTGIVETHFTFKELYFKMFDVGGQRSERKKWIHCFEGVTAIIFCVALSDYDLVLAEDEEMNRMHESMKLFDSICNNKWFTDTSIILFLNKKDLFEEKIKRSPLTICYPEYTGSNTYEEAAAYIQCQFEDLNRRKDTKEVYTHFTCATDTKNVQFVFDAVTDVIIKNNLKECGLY
Sa growth 42C second temp: also measured in Sa growth 42C; calls as there; relative growth, %; measured here: growth at 30 °C;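 optical density after 20 h as mean of two plates; 100% = untreated growth and lower means inhibition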
* = called active by the depositor; x = no result given. Compounds as they come; overall some 0.85% were active at least once.

canonical_smiles	HCMV UL50-53 inh	Sa growth 42C	Sa growth 42C second temp	GIV Gai3 FP
N#CC(C#N)=Cc1cn(-c2ccccc2)nc1C12CC3CC(CC(C3)C1)C2	-18	113	83	105
CCCS(=O)(=O)N1CCC(n2c(C)nc3cccnc32)CC1	x	75	91	102
CC1CCC(NC(=O)Nc2cn(C)c(=O)c3ccccc23)CC1 (stereo unspecified)	-8	98	95	101
O=C(O)CN1C(=O)CCCc2ccccc21	x	97	88	101
O=C(NCCCN1CCN(c2ccc(F)cc2)CC1)c1cc2c(Cl)nc3ccccc3c2s1	-38	108	96	100
N#C/C(=C\c1ccc(Br)cc1)c1nc(-c2cc3cc(Br)ccc3oc2=O)cs1	-47	97	92	108
COC(=O)C(C)Sc1nnc(-c2ccncc2)o1 (stereo unspecified)	-11	x	x	96
CC(C)(C)Nc1nc(OCC(F)(F)F)nc(OCC(F)(F)F)n1	-21	x	x	100
CCC1CCCCN1c1ncnc2c1nnn2Cc1ccccc1Cl (stereo unspecified)	1	101	74	103
Cc1cc(C)nc(NS(=O)(=O)c2ccc(NC(=O)c3cccc(F)c3)cc2)n1	8	x	x	108
CN[C@@H]1[C@@H](O[C@H]2O[C@H](CO)[C@@H](N)[C@H](O)[C@H]2O)O[C@H]2C[C@@H](N)[C@H](O[C@H]3[C@H](O)[C@@H](O)[C@H](N)C[C@@H]3N)O[C@@H]2[C@@H]1O	-22	99	94	x
CC(C)NC(=O)Cn1ncc2c3ccccc3n(C)c2c1=O	-15	98	87	102
Nc1ccccc1C(=O)NC1CC1	10	110	92	x
FC(F)(F)c1ccc(Cn2cnc3ccccc32)cc1	-9	79	87	x
Clc1ccc(C2=NNC(c3ccc4c(c3)OCO4)C2)cc1Cl (stereo unspecified)	-20	89	85	101
O=C(CNC(=O)c1cccs1)c1ccc(F)cc1	-14	93	109	104
CC(=O)n1cc(/C=c2/sc3nc4c(C)c(C)ccc4n3c2=O)c(-c2ccccc2)n1	8	96	103	x
O=C(Nc1ccccc1)N1CC2CCCN2c2ccccc21 (stereo unspecified)	-14	109	96	102
COc1ccccc1NC(=O)CSc1ccccn1	-15	87	91	x
COCCCNC(=O)C1CCN(c2nc3ccc(Cl)cc3[nH]2)CC1	x	115	103	111
COC(=O)c1ccccc1NC(=O)NCCn1c(-c2ccc(F)cc2)nc2cccnc21	-18	x	x	103
CC(C)n1cnc(S(=O)(=O)N2CCC(C(=O)N3CCCC3)CC2)c1	-15	x	x	104
COc1cc(/C=C2\SC(=O)N(CCN)C2=O)ccc1OC(F)F	-13	99	94	x
Cc1c(C(=O)N(Cc2cccc(F)c2)C2CCS(=O)(=O)C2)oc2cc(Br)ccc12 (stereo unspecified)	-7	116	78	104
O=C(N/N=C1\CC2CC=CC12)c1ccc(O)cc1 (stereo unspecified)	-26	73	87	x
CC(=O)Nc1nonc1-c1nnc(SCc2ccccc2C)n1C	-13	96	86	97
Cc1cc2c(SCC(=O)c3cccs3)ncnc2s1	-14	101	82	106
CCOC(=O)CC(N)c1cccs1 (stereo unspecified)	-10	95	89	99
Cc1cc(C(C)(C)C)cc(C)c1I	-32	106	93	105
COCCCNC(=O)c1cc2c(s1)-c1c(C)nn(-c3ccccc3)c1CC2	-65	x	x	104

Another view of some results above.
Values in the order: HCMV UL50-53 inh, Sa growth 42C, Sa growth 42C second temp, GIV Gai3 FP
COC(=O)c1ccccc1NC(=O)NCCn1c(-c2ccc(F)cc2)nc2cccnc21
  -18, x, x, 103
CC(C)n1cnc(S(=O)(=O)N2CCC(C(=O)N3CCCC3)CC2)c1
  -15, x, x, 104
COc1cc(/C=C2\SC(=O)N(CCN)C2=O)ccc1OC(F)F
  -13, 99, 94, x
Cc1c(C(=O)N(Cc2cccc(F)c2)C2CCS(=O)(=O)C2)oc2cc(Br)ccc12 (stereo unspecified)
  -7, 116, 78, 104
O=C(N/N=C1\CC2CC=CC12)c1ccc(O)cc1 (stereo unspecified)
  -26, 73, 87, x
CC(=O)Nc1nonc1-c1nnc(SCc2ccccc2C)n1C
  -13, 96, 86, 97

Additional records
canonical_smiles	HCMV UL50-53 inh	Sa growth 42C	Sa growth 42C second temp	GIV Gai3 FP
CC(NC(=O)CSc1nnc(-c2cccc(F)c2)n1-c1ccccc1)c1ccccc1 (stereo unspecified)	2	109	132	x
O=C(COc1cc(Cl)ccc1Cl)Nc1cccc2nsnc12	6	118	96	x
O=C(COCc1cc(-c2ccc3c(c2)OCO3)on1)N1CCCC1	-8	105	88	100
O=C(CCCn1c(=O)c2ccccc2n(Cc2ccc(F)cc2Cl)c1=O)NCCc1ccc(Cl)cc1	-4	100	92	102
COCc1cc(=O)oc2cc(NC(=O)C3CC3)ccc12	1	114	83	104
COc1ccccc1N1CCN(CCCNC(=O)c2cnn(-c3cccc(Cl)c3)c2C2CCN(C(=O)OC(C)(C)C)CC2)CC1	x	97	64	100
CC(C)Cn1c(=O)c2ccc(C(=O)NC(C)C)cc2n2c(=O)n(CC(=O)NC3CCCC3)nc12	-14	x	x	110
C/C(Cc1ncn(-c2cc(C)on2)n1)=N\OC(=O)Nc1ccc(Cl)cc1	-15	97	92	105
Cc1noc(-c2ccc(NC(=O)C3CC(=O)N(CCc4ccccc4)C3)cc2)n1 (stereo unspecified)	-1	x	x	106
CN(C)c1ccc(/C=C2\C(=O)NC(=O)N(c3cccc(Br)c3)C2=O)o1	-93	x	x	339
CCc1ccc(NC(=O)CSc2nccn2-c2ccc(F)cc2)cc1	x	102	93	102
O=C(OCN1C(=O)c2ccccc2C1=O)C1CCN(c2ccc(C(F)(F)F)cn2)CC1	-15	96	94	x
C(=C\c1ccccc1)/C=N/Nc1nn[nH]n1	-78	54	89	x
COc1cccc(C(=O)Nc2n[nH]c3ccccc23)c1	-2	112	71	95
Cc1ccc(C(=O)NN2C(C)CCCC2C)o1 (stereo unspecified)	-14	120	89	x
CCOC(=O)c1cc(C)n(CC2CCC(C(=O)Nc3ccc(Cl)cc3)CC2)c1C (stereo unspecified)	x	109	95	105
O=C(Nc1ccc(NC(=S)NC(=O)c2cc3ccccc3o2)cc1)c1ccco1	x	91	84	103
C[C@](N)(Cc1ccc(O)cc1)C(=O)O	-14	x	x	92
Cc1cc(C)n(CCCNC(=O)CSc2nnc(C(F)(F)F)n2C)n1	10	92	96	x
N#Cc1ccc(C(=O)NC2CCCc3ccccc32)cc1 (stereo unspecified)	-15	106	79	x
CCC(C)NC(=O)Nc1ccc(C)c(Cl)c1 (stereo unspecified)	13	109	100	x
O=C(c1ccccc1)n1cc2c(n1)-c1ccccc1CS2	-23	87	87	108
Cc1ccc(S(=O)(=O)N(C)CCc2noc(-c3ccccc3)n2)c2nsnc12	-3	x	x	98
Clc1ccc(Cc2nnc3ccc(Cl)nn23)cc1	-82	x	x	108
COc1ccc(CC(=O)OCCOc2ccccc2F)cc1	-2	95	89	x
Cc1oc(C(C)(C)C)cc1C(=O)Nc1ccc(N(C)C)cc1	-8	94	93	111
Cc1nnc(NC(=O)CSc2nccn2Cc2ccc(F)cc2)s1	x	102	91	96
CCn1c(SC(C)C(=O)NC(N)=O)nnc1-c1ccccc1 (stereo unspecified)	-8	92	96	x
O=C(NCCC1=CCCCC1)c1ccc2c(Cl)c3c(nc2c1)CCC3	x	80	101	103
Cc1ccc(C(=O)N2CCCCC2CCN2CCCCC2)cc1 (stereo unspecified)	-21	95	87	100
CCc1nc(-c2cc(S(=O)(=O)NCC(=O)N3CCCCC3)c(C)s2)no1	2	x	x	99
COC(=O)c1ccc(NC(=O)c2c(NCc3cccc(F)c3)sc3c2CCCC3)cc1	x	76	48	105
COc1cc(S(=O)(=O)N(CCc2ccccc2)Cc2cccs2)ccc1-n1cnnn1	0	114	93	95
COC(=O)C1=C(C)OC(N)=C(C#N)C1c1ccccc1OC (stereo unspecified)	-22	x	x	105
Cc1ccc(C(=O)Nc2nnc(S(=O)(=O)N3CCCCCC3)s2)cc1	-18	96	93	102
Cc1cc(C)n(CC(O)Cn2c3ccccc3c3ccccc32)c(=O)n1 (stereo unspecified)	1	98	99	104
CC(C)=CCCC12CCC(CO)(CO1)C(C)C2 (stereo unspecified)	-11	90	92	102
CCc1ccccc1NC(=O)c1cc2cccc(OC)c2oc1=O	-10	70	81	100
COCc1cc(C)n(CC(N)=O)c(=O)c1C#N	-5	107	90	107
CCOC(=O)c1nc(Nc2ccc(OC)c(OC)c2)c2ccccc2n1	-84	x	x	100

The list goes on; the last two above are carried over.
canonical_smiles	HCMV UL50-53 inh	Sa growth 42C	Sa growth 42C second temp	GIV Gai3 FP
COCc1cc(C)n(CC(N)=O)c(=O)c1C#N	-5	107	90	107
CCOC(=O)c1nc(Nc2ccc(OC)c(OC)c2)c2ccccc2n1	-84	x	x	100
O=C(NCc1c(-n2cccc2)sc2c1CCCC2)Nc1ccc(Cl)cc1	-2	x	x	104
COc1ccc(-c2nc3c(c(SCC(=O)Nc4ccc(C(=O)O)cc4)n2)Cc2ccccc2O3)cc1	-58	100	72	105
CCc1ccc(NC(=O)C2CCN(c3nc4ccccc4nc3OC)CC2)cc1	-13	x	x	105
O=C(CSc1nnc2scc(-c3ccccc3)n12)N1CCCCCC1	x	92	102	101
C/C(N)=C(/C#N)C(=O)CSc1n[nH]c(C(C)C)n1	-9	73	87	x
S=C(Nc1cccc(Cl)c1)NC1CCSc2ccc(Cl)cc21 (stereo unspecified)	x	27	28	102
C=CCN1C(=O)C(C(=O)N2CCOCC2)C2CC1(C)Oc1ccccc12 (stereo unspecified)	1	87	88	99
O=C(COc1cccc2ccccc12)N1c2ccccc2CCc2ccccc21	x	110	103	95
Cc1ccc(CN2C(=O)c3ccccc3S(=O)(=O)c3ccc(C(=O)OCC4CCCO4)cc32)cc1 (stereo unspecified)	x	107	94	107
CCN1CCN(C(c2ccc(SC)cc2)c2c(O)cc(C)n(Cc3ccco3)c2=O)CC1 (stereo unspecified)	x	106	90	99
O=C(NCc1cccc(F)c1)C1CCCN(C(=O)N2CCOc3ccccc32)C1 (stereo unspecified)	-9	123	86	99
O=C(O)CC1C(=O)N2CCNC2=C1C(=O)c1ccccc1 (stereo unspecified)	-8	127	96	x
Cc1nnsc1C(=O)n1nccc1-c1cnn(-c2ccccc2)c1C	-27	99	91	106
CCc1ccc(NC(=O)c2ccc3c(c2)c(C)c(C)n3Cc2ccccc2)cc1	x	93	96	105
Cc1nc2sc(C)c(C)n2c(=O)c1S(=O)(=O)NCCc1ccc(Cl)cc1	x	90	79	114
N#Cc1ccc(COC(=O)C2CC3C=CC2C3)cc1 (stereo unspecified)	-9	93	90	x
S=c1[nH]nc(COc2ccc3c(c2)CCCC3)o1	x	101	53	103
CCc1ccc(C2C(C#N)=C(C)NC3=C2C(=O)CCC3)cc1 (stereo unspecified)	x	74	74	99
CC1CCCCN1CCNC(=O)C1CCN(c2ccc(-c3ccccc3)nn2)CC1 (stereo unspecified)	-50	x	x	101
CCOc1ccc(-c2nnc(SCC(=O)NCc3ccccc3)nc2-c2ccc(OCC)c(OC)c2)cc1OC	x	120	88	102
COCCn1cc(C(=O)N2CCC(Cc3ccccc3)CC2)c2c3ccccc3n(C)c2c1=O	-26	x	x	103
CCc1ccc(C(=O)c2cn(CC(=O)NCCc3ccccc3)c3nc(C)ccc3c2=O)cc1	x	87	94	113
CCOc1ccc(CCNC(=O)c2csc3c2CCCCC3)cc1	-9	94	93	97
CCOc1ccc(-c2noc(-c3nnn(-c4ccccc4C(F)(F)F)c3N)n2)cc1	-5	105	107	103
Cc1ccc(C(=O)n2cnnc2N)cc1	-7	119	94	103
Cc1ccnc(SCC(=O)Nc2cccc(C(F)(F)F)c2)n1	-26	93	83	x
CCOC(=O)c1c(-c2cccs2)csc1NC(=O)COC(=O)c1ccc(-n2cnnn2)cc1	-9	87	90	x
O=C1Nc2ccccc2Oc2cc(Oc3cccc(Cl)c3)ccc21	-28	74	89	111
